# Source: PubChem (several laboratories)
# eIF4H FP inh: inhibitors of RNA binding by human eIF4H | Q15056 | eIF4H fluorescence polarization binding assay | inhibition, % at 35 µM | 290,000 tested, 0.94% active | AID 2012;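 active = 50% or more with normal probe brightness, or confirmed in later tests; inconclusive = above 50% with abnormal brightness, or retests that disagree; inactive = below 50% or failed in later tests; about a fifth of its hits are not listed in these tables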;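 also: calls also rest on retests at 20 µM and on dose response follow-up; 0% = protein and probe with vehicle and 100% = probe without protein; strong numbers were not always called active; many hits fall short of the cut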
# Env fusion inh: inhibitors of HIV Env-mediated cell fusion. inhibition, % at 12.3 µM. HeLa-JRFL Env/CEM21 cell fusion, luciferase. 360,000 tested, 1.1% active;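 active = mean replicate inhibition score of at least 50 and every replicate individually at or above 50; inconclusive = only one of the two criteria met; inactive = mean below 50 and not all replicates reaching 50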;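 also: 0% = plate neutral controls and 100% = maraviroc near 300 nM; one replicate is shown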
# PABP polyA inh: blocks human PABP binding to poly(A) RNA; P11940; 290,000 tested, 1% active; fluorescence polarization; inhibition, % at 35 µM;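 active = 50% or more with normal probe brightness, or confirmed in later tests; inconclusive = above 50% with abnormal brightness, or retests that disagree; inactive = below 50% or failed in later tests; about a fifth of its hits are not listed in these tables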;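 also: calls also rest on retests at 20 µM and on dose response follow-up; controls were probe without protein and protein plus probe with vehicle; some compounds called inactive have numbers as strong as hits; many hits fall short of the cut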
# Target sequence (P11940 whole entry, looked up): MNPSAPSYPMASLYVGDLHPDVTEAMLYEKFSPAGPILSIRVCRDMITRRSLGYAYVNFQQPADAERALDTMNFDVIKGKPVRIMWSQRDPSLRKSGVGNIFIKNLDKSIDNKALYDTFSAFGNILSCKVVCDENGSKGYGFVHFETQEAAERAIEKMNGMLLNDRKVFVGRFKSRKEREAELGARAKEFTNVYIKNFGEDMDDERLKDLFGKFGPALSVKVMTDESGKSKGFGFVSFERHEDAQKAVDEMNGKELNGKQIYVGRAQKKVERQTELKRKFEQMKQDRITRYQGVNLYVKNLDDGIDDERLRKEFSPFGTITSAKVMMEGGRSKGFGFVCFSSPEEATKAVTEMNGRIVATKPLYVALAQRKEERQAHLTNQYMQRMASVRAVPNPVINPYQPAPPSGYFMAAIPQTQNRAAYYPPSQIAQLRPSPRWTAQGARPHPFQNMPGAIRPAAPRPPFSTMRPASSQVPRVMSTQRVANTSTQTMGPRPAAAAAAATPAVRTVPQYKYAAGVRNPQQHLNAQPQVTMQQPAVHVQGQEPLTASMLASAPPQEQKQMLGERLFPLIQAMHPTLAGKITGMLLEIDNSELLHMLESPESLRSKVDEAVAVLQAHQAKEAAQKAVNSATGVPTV
# UUG fidelity: modulators of start codon recognition fidelity in yeast; S. cerevisiae UUG-firefly luciferase reporter, luminescence/redox ratio; activity score, % at 18.7 µM; 350,000 tested, 0.13% active; AID 602363;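 active = replicate mean at a twofold rise or more, about +100% in these data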;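 also: firefly luciferase made from a UUG start codon reports start codon fidelity; reporter light over untreated wells divided by growth signal over untreated wells; some hits fall short of that in this replicate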
# Rce1 inh: yeast Ras-converting enzyme inhibition; yeast membranes, quenched prenylated peptide cleavage fluorescence; calls only; 290,000 tested, 0.27% active;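 active = fall in fluorescence gain of 50% or more versus controls, with final raw signal at or below 3038400; inconclusive = same 50% fall but final raw signal above 3038400; inactive = fall in fluorescence gain under 50%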;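 also: plate controls were neutral control wells for no effect and wells lacking membranes for full effect; tested at 10 µM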
# MT1-MMP act inh: blocks activation of human MT1-MMP | P50281 | HT1080 RFP-PRO-GFP cells, GFP/RFP ratio fluorescence, overnight; percent of plate control window, DMSO zero | GFP/RFP ratio change, % at 20 µM | 360,000 tested, 0.061% active | AID 651647;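 active = GFP/RFP ratio change of at least 30% with cell ATP level not reduced by more than half and red fluorescence within 50% of control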; also: strong numbers were not always called active
#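 Assay system: HT1080 cells carrying an RFP-PRO-GFP reporter | Dosing: Single dose of 20 µM compound, 1% DMSO final | Incubation: Cells overnight before dosing, compound overnight, 37 °C, 5% CO2 | Evaluation: GFP/RFP fluorescence ratio | Control set: DMSO and RFP-L50D-GFP cell wells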
# CSC inhib: cancer stem cell inhibition; inhibition, % at 7.5 µM; AID 2717; cancer stem cell-like cells viability, luminescence; 300,000 tested, 1.1% active;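 active = mean at 75% or more and at least half the replicates too; inconclusive = mean and replicates disagree; tested in HMLE shEcad cells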;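 also: 0% = median of negative and 100% = median of positive control wells; the first replicate is given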
# MT1-MMP act inh RFP: further read-out of MT1-MMP act inh, marked with its call; RFP signal change, %; measured here: RFP expression control read;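 0 = vehicle wells; hits needed this value within 50% of zero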
# Numbers without * were called inactive; i = inactive; ? = inconclusive; . = no result given; & = joins results of further samples; [ ] = dose if it differs, or a comment.
1	O=C(NCC1COc2ccccc2O1)c1cn(Cc2ccc(F)cc2)nn1 (stereo unspecified)
2	COC(=O)C1CCN(C(=O)COC(=O)c2cc(S(=O)(=O)N3CCOCC3)ccc2C)CC1
3	NS(=O)(=O)c1ccc(NC(=O)CSc2n[nH]c(=O)n2C2CC2)cc1
4	Cc1cc(C)cc(OCCCCn2cncn2)c1
5	CCCN1c2cccc3cccc(c23)S1(=O)=O
6	COc1ccc(OCC(=O)NCCNC(=O)c2ccccn2)cc1
7	Cc1cccc(-n2[nH]c(C)c(C=Nc3ccc4[nH]c(=O)[nH]c4c3)c2=O)c1
8	O=C(/C=C/c1ccc([N+](=O)[O-])cc1)NCc1ccccn1

entry no. | 1 | 2 | 3 | 4 | 5 | 6 | 7 | 8
eIF4H FP inh | -3 | . | . | -1 | -4 | -8 | 61* | -3
Env fusion inh | 21 | 72* | -23 | 0 | . | 5 | 9 | -20
PABP polyA inh | -18 | . | . | 13 | 9 | -4 | 85* | 18
UUG fidelity | -13 | -5 | -18 | -22 | -1 | -19 | -18 | 5
Rce1 inh | i | . | . | i | i | i | i | i
MT1-MMP act inh | 0 | -1 | 1 | 0 | -5 | -1 | 2 | 1
MT1-MMP act inh RFP | 3 | -3 | 0 | 0 | -3 | 4 | 1 | -1
CSC inhib | . | 5 | . | -17 | -5 | -9 | 8 | 7

9	COc1cc(CCC(=O)Nc2ccc(Cl)c(C(F)(F)F)c2)cc(OC)c1OC
10	Cc1ccc(S(=O)(=O)NC(=O)c2cccn2C)cc1
11	O=C(CSc1nnc(Cc2cccs2)n1Cc1ccco1)Nc1ccc(Br)cc1
12	CCOc1ccc(Cc2nnc(SCC(=O)Nc3ccc(C(C)=O)cc3)[nH]c2=O)cc1
13	C=C(C)Cn1c(C)cc(C)c(S(=O)(=O)c2cccc(C)c2)c1=O
14	Cc1ccc2sc(NNC(=O)c3cc(-c4cccs4)nc4ccccc34)nc2c1C
15	COc1ccc(-c2cc3nc(C)c(C)c(N4CCN(C(=O)c5ccoc5)CC4)n3n2)cc1
16	Cc1cccc(NC(=O)c2ccc(N3C(=O)C4CCCCC4C3=O)cc2)c1C (stereo unspecified)

entry no. | 9 | 10 | 11 | 12 | 13 | 14 | 15 | 16
eIF4H FP inh | -6 | 8 | 3 | . | -9 | 12 | . | 0
Env fusion inh | 15 | -28 | . | -12 | 14 | 17 | 4 | 4
PABP polyA inh | 5 | -3 | 1 | . | -1 | -10 | . | -4
UUG fidelity | . | -17 | -10 | -27 | . | . | -14 | 5
Rce1 inh | i | i | i | i | i | i | . | i
MT1-MMP act inh | 6 | 0 | -2 | 4 | -6 | . | -1 | -2
MT1-MMP act inh RFP | 0 | 4 | 1 | 1 | -9 | . | -2 | 2
CSC inhib | -4 | 10 | -9 | -10 | -1 | 38 | . | .

17	Nc1c(-c2ccc(Cl)cc2)cnn1C1CCS(=O)(=O)C1 (stereo unspecified)
18	CC(C)(CC(=O)O)CC(=O)N1CCCN(c2nccc(C(F)(F)F)n2)CC1
19	Cc1ccc(OCC(=O)N/N=C/C=C/c2ccco2)cc1
20	O=C(Cn1nc(C(=O)O)c2ccccc2c1=O)Nc1cc(S(=O)(=O)N2CCCCC2)ccc1Cl
21	COc1ccc(S(=O)(=O)NCC(=O)Nc2cccc(C)c2C)cc1OC
22	NC(=O)C1Cc2ccccc2CN1S(=O)(=O)c1cccs1 (stereo unspecified)
23	CN(C)S(=O)(=O)c1cc(NC(=O)COC(=O)CCc2ccccc2)ccc1Cl
24	O=C(Nc1ccc(Cl)cc1)OCc1cc(-c2ccccc2)on1

entry no. | 17 | 18 | 19 | 20 | 21 | 22 | 23 | 24
eIF4H FP inh | 10 | -6 | . | . | -6 | -5 | -12 | -13
Env fusion inh | . | -13 | . | -26 | 16 | -5 | 10 | .
PABP polyA inh | -4 | 8 | . | . | -6 | 11 | 5 | -2
UUG fidelity | -1 | -11 | -13 | -22 | -23 | . | -7 | .
Rce1 inh | i | i | i | . | i | i | i | i
MT1-MMP act inh | 11 | 0 | -1 | 1 | 0 | 0 | 1 | 4
MT1-MMP act inh RFP | -1 | 1 | 8 | -1 | 2 | 8 | 3 | 5
CSC inhib | -15 | -8 | 13 | -16 | -12 | -4 | 4 | 12

25	Cc1ccc(-c2cc(C(F)(F)F)n3nc(C(=O)Nc4ccon4)cc3n2)cc1C
26	O=C1c2ccc(Oc3ccc([N+](=O)[O-])cc3)cc2C(=O)N1c1ccncc1
27	CC(=O)Nc1ccc(NS(=O)(=O)c2ccccc2)cc1
28	Cc1ccc(-c2nc3cc(NS(=O)(=O)c4ccc(C)cc4)ccc3o2)cc1
29	CCOc1ccc2nc(SCc3ccc(OC)cc3)sc2c1
30	COc1ccc(NC(=O)Nc2cccc3c2O[C@H](CN(C)C(=O)NC2CCCCC2)[C@@H](C)CN([C@H](C)CO)C3=O)cc1
31	CCOC(=O)Nc1ccc2c(CN3CCC(C(=O)OC)CC3)cc(=O)oc2c1
32	COCC(=O)NC1CCN(S(=O)(=O)c2cccc(C(C)=O)c2)CC1
33	CCOC(=O)NC(=O)CSc1nnc(C)s1
34	COC(=O)C1=C(C(=O)OC)SC2(S1)C(C(=O)OC)=C(C(=O)OC)SC1=C2c2cc(C)cc(C)c2NC1(C)C
35	COCCCn1c(=O)/c(=C\c2ccccc2OC(C)C)s/c1=C(/C#N)C(=O)Nc1ccc(C(=O)O)cc1

entry no. | 25 | 26 | 27 | 28 | 29 | 30 | 31 | 32 | 33 | 34 | 35
eIF4H FP inh | 2 | 7 | -2 | -3 | -4 | . | -2 | -10 | -5 | -3 | ?
Env fusion inh | -8 | 9 | -7 | -20 | 14 | 24[16.7 µM] | 8 | 2 | . | . | 13
PABP polyA inh | 1 | 1 | 6 | 1 | -8 | . | -2 | 1 | -12 | 6 | ?
UUG fidelity | -4 | 36 | -6 | 0 | . | 8&-5 | -6 | . | -15 | -4 | -9
Rce1 inh | i | i | i | i | i | . | i | i | i | i | i
MT1-MMP act inh | 1 | -1 | 1 | -1 | 3 | 1 | 0 | -21 | 1 | -5 | -13
MT1-MMP act inh RFP | 2 | 1 | 4 | -1 | 2 | 1 | 0 | -10 | 6 | -5 | -10
CSC inhib | -15 | -20 | -3 | 19 | 12 | . | 1 | -1 | 1 | 13 | -10

# Entries 25–30, reprinted for reference:
25	Cc1ccc(-c2cc(C(F)(F)F)n3nc(C(=O)Nc4ccon4)cc3n2)cc1C
26	O=C1c2ccc(Oc3ccc([N+](=O)[O-])cc3)cc2C(=O)N1c1ccncc1
27	CC(=O)Nc1ccc(NS(=O)(=O)c2ccccc2)cc1
28	Cc1ccc(-c2nc3cc(NS(=O)(=O)c4ccc(C)cc4)ccc3o2)cc1
29	CCOc1ccc2nc(SCc3ccc(OC)cc3)sc2c1
30	COc1ccc(NC(=O)Nc2cccc3c2O[C@H](CN(C)C(=O)NC2CCCCC2)[C@@H](C)CN([C@H](C)CO)C3=O)cc1

entry no. | 25 | 26 | 27 | 28 | 29 | 30
eIF4H FP inh | 2 | 7 | -2 | -3 | -4 | .
Env fusion inh | -8 | 9 | -7 | -20 | 14 | 24[16.7 µM]
PABP polyA inh | 1 | 1 | 6 | 1 | -8 | .
UUG fidelity | -4 | 36 | -6 | 0 | . | 8&-5
Rce1 inh | i | i | i | i | i | .
MT1-MMP act inh | 1 | -1 | 1 | -1 | 3 | 1
MT1-MMP act inh RFP | 2 | 1 | 4 | -1 | 2 | 1
CSC inhib | -15 | -20 | -3 | 19 | 12 | .
